nsP2pro inh: Primary qHTS for inhibitors of NSP2Pro chikungunya virus (CHIKV); Polyprotein P1234 (Chikungunya virus (strain S27-African prototype)), Q8JUX6; FRET peptide cleavage, nsP2pro, fluorescence 1 h; Potency, µM (doses to about 24.9 µM), inactives show at the highest dose activity change, negative = inhibition, actives largely listed as inhibitors; hit rate 1.1% among 31,000; AID 1964107, 2024; active means well fitted inhibition curve with a large enough effect; inconclusive means small, poorly fitted or top-dose-only effect; inactive means no such curve, though single readings can be large or run the other way; also: nearly all actives have a fitted effect of over 60% in size; a reference inhibitor and vehicle were the controls
An asterisk follows results filed as active; i = inactive; ? = inconclusive; & = joins results of further samples; [ ] = dose if it differs, or a comment. % is scaled to controls: 0 for no effect and ±100 for the full control effect; potency is read from the fitted curve at half-maximal effect.

SMILES | nsP2pro inh
CCCCC[C@@H](O)C1C(=O)OC(C)[C@H](O)/C=C/C=C/C=C/C=C/C=C(\C)C(O)C(O)C(O)C[C@H](O)C[C@H](O)C[C@H](O)C[C@H](O)C[C@@H]1O (stereo partly drawn) | 16.2%
COc1ccccc1Cc1nc2ccccc2nc1SCC(=O)Nc1ccc2c(c1)OCO2 | -18.2%
Cc1ccc(C(C(=O)NCc2c(C)n[nH]c2C)N(C)C)cc1 (stereo not drawn) | i
COc1ccc(CC(=O)Nc2ccc(-c3nc4ccccc4s3)cc2Cl)cc1 | -8.5%
COc1ccc2c(c1O[C@H]1CCNC1)CCC2 | -5.1%
COc1cc(O)c(C(CC(=O)N2CCC(Cc3ccccc3)CC2)c2ccc(OC)c(OC)c2)c(OC)c1 (stereo not drawn) | -6.9%[39.2 µM]
Clc1cc(Cl)c2c(c1)N=C1CCCCCN1C2 | -14.1%
COc1ccc(C(=O)N2C[C@@H]3OCC(=O)N(CC4CCCCC4)[C@@H]3C2)cc1 | -10.8%[39.2 µM]
O=[N+]([O-])O[C@H]1CO[C@H]2[C@@H]1OC[C@H]2O[N+](=O)[O-] | -1.3%
CC(=O)NCCCCn1c2c(c3ccccc31)C(=O)NCC2 | -18.5%
CCSc1nnc2c(n1)OC(CC)N(C(C)=O)c1ccccc1-2 (stereo not drawn) | -15.1%
CC(=O)Nc1nc(C)c(S(=O)(=O)Nc2ccc(C(O)(C(F)(F)F)C(F)(F)F)cc2)s1 | -20.6%
Cc1oc(-c2cccc(Cl)c2)nc1CN1CCC(C(=O)NCCCN2CCN(c3ccccc3F)CC2)CC1 | 15.0%
COc1cncc([C@@H](NC(=O)CCc2c(C)noc2C)C2CC(O)C2)c1 (stereo partly drawn) | i
COc1cc(/C=C/C(=O)O[C@H]2[C@@H]3C=CO[C@@H](O[C@@H]4O[C@H](CO)[C@@H](O)[C@H](O)[C@H]4O)[C@@H]3[C@@]3(CO)O[C@@H]23)ccc1O | -3.0%[10 µM]
Clc1nc(CN2CCOCC2)nc2sc3c(c12)CCC3 | -5.3%
CC1CCN(CC2CCCCCN2C(=O)Nc2ccc3c(c2)OCCO3)CC1 (stereo not drawn) | i
Cn1ccc(C(=O)N[C@@H]2COCC[C@@H]2OCc2cscn2)cc1=O | i
Cn1nc(-c2ccc(N3CCCCC3)c(NC(=O)c3ccc(Cl)cc3)c2)c2ccccc2c1=O | -8.1%
CC(C)(C)c1ccc2c(S(=O)(=O)O)c(C(C)(C)C)ccc2c1 | 3.7%
Cc1cccc(Oc2ccc3c(c2)Oc2ccccc2NC3=O)c1 | 11.4%
COC(=O)C[C@](O)(CCCC(C)(C)O)C(=O)O[C@@H]1C(OC)=C[C@]23CCCN2CCc2cc4c(cc2[C@H]13)OCO4 | -1.9%
Oc1ccc(Cl)cc1Cc1ccccc1 | 12.0%
CC(C)(C)c1ccc(CSC2=Nc3ccccc3C3=NC(CC(=O)NCc4cccs4)C(=O)N23)cc1 (stereo not drawn) | -2.3%
CC1CC(=O)NN=C1c1ccc(NCC(C)(C)NCC(O)COc2cc(Cl)ccc2C#N)cc1 (stereo not drawn) | 1.0%
CCCCC(CC)CN1CN(CC(CC)CCCC)CC(C)(N)C1 (stereo not drawn) | 4.3%
CC(=O)O[C@@H]1[C@H](OC(C)=O)C[C@@]2(C)C(CC[C@@H](C)[C@]23Cc2c(O)cc4c(c2O3)CN([C@@H](CCC(=O)O)C(=O)O)C4=O)C1(C)C (stereo partly drawn) | ?
O=C(N[C@@H]1CN(Cc2ccccc2)C[C@H]1CO)c1cn[nH]c1 | i
Cc1cccc(N2CCN(S(=O)(=O)c3cc(C(=O)Nc4ccc(Oc5ccccc5)cc4)ccc3F)CC2C)c1 (stereo not drawn) | -13.1%
CCOC(=O)c1c(C)c(-c2ccccc2)n(CC(=O)Nc2cccc(F)c2)c1C | -9.9%
COc1ccc(OC)c(CNc2ncnc3c2nc2n3CCCC2)c1 | -4.6%
CC(C)c1ccc(NC(=O)C(Cc2ccccc2)NS(=O)(=O)c2ccc3c(c2)CCC(=O)N3)cc1 (stereo not drawn) | -1.3%
Cc1noc(C)c1CC(=O)N1CCCn2ccnc2C1c1ccccc1 (stereo not drawn) | 2.6%
O=c1cc(-c2cccnc2)oc2c(NCCc3ccccn3)nccc12 | -21.0%[39.2 µM]
COc1cccc(CN2C(=O)c3ccccc3C2C(=O)NCCc2ccccc2)c1 (stereo not drawn) | -9.8%
CC1(C(=O)O)CCCC2(C)C3CCC4CC3(CCC12)CC4=O (stereo not drawn) | -1.2%
O=C(NC1CC1)[C@@H]1C[C@H](Oc2ccccc2)CN1C(=O)C1CCC1 | i
CCCC1(C(=O)O)CCCN(S(=O)(=O)c2ccsc2C(=O)O)C1 (stereo not drawn) | -6.2%
CC1=C(C(=O)Nc2ccc(Cl)cc2)C(C(C)C)n2nc(SCc3ccc(Cl)cc3)nc2N1 (stereo not drawn) | -14.9%
Cc1ncc(OC[C@@]2(c3cccc(F)c3)C[C@H]2C(=O)Nc2ccc(F)cn2)c(C)n1 | -9.9%
O=C1O[C@H]2[C@H](OC(O)[C@@H]2O)[C@@H]1O (stereo partly drawn) | -14.4%[39.2 µM]
COc1cc2nc(N(C)CCCNC(=O)C3CCCO3)nc(N)c2cc1OC (stereo not drawn) | -11.6%
CN(C(=O)CN1C(=O)COc2cc(Cl)c(Cl)cc21)[C@@H](CN1CCCC1)c1ccc(-c2cccc(C(N)=O)c2)cc1 | 62.1%[activator]
COc1ccc(C2=CC(c3ccccc3Cl)n3nc(-c4ccc(C)cc4)nc3N2)cc1 (stereo not drawn) | -6.6%
Cc1ccc(OCCn2c(CCNC(=O)c3ccc(F)cc3F)nc3ccccc32)cc1 | -12.8%
COc1cccc([S+](=O)([O-])N2CCn3cc(C(=O)NCc4ccc(Cl)nc4)nc3C2)c1 | i
COc1ccc(Cl)cc1C(=O)N1CCC2(CC1)CN(C)CCN2C | i
CC(C)CN(CC(C)C)CC(O)Cn1cc(/C=C/C(=O)c2ccccc2)c2ccccc21 (stereo not drawn) | -24.4%
Cc1cc(C)nc(NC(=S)N2CCN(c3ncccc3C(F)(F)F)CC2)c1 | ?
O=C(Nc1ccc([C@H]2OCC(=O)N(C3CCOCC3)[C@@H]2CO)cc1)c1cnccn1 | i
COc1cccc(CCC(=O)NCc2nnc3c(-c4nc(C)no4)cccn23)c1 | -2.1%
COc1ccc(NC(=O)CCn2c(=O)c3cccn3c3cccnc32)cc1Cl | -17.0%
CCc1nnc2sc(-c3ccc(C)c(NC(=O)c4ccc(-c5cccc(Cl)c5)o4)c3)nn12 | -18.4%
CCc1ccc(CN(Cc2ccco2)C(=O)c2ccc(C)cc2)cc1 | ?
C/C=C/C=C/C(=O)O[C@@H]1C=C2COC(=O)[C@]2(O)[C@@]2(C)CCCC(C)(C)[C@H]12 | -4.4%
CCN(CC)c1ccc(NC(=O)C2CCN(S(=O)(=O)c3cnc[nH]3)CC2)c(C)c1 | -27.8%
CC(=O)N1CCc2ccc(O)c(OC3OC(COC4OCC(O)(CO)C4O)C(O)C(O)C3O)c2C1Cc1ccc(O)cc1 (stereo not drawn) | -9.7%[10 µM]
O=[S+]([O-])(c1ccc2c(c1)OCCO2)N1CCN([S+](=O)([O-])c2c(Cl)cc(Cl)cc2Br)CC1 | -5.7%
CN(C)/N=N/c1nc[nH]c1C(N)=O | -2.3%
CC(=O)NC(CO)C(=O)N1CCc2c(nc(-c3cccnc3)nc2N(C)C)C1 (stereo not drawn) | i

(listing goes on)
SMILES | nsP2pro inh
O=C(O)c1ccc(O)c2ncc(NCC3CCCN(CCc4ccccc4)C3)cc12 (stereo not drawn) | 3.3%
O=C1CO[C@H]2CN(Cc3ccc(C(F)(F)F)cc3)C[C@H]2N1 | -1.7%[39.2 µM]
O=C1NC(=O)c2c1c1c3ccccc3[nH]c1c1[nH]c3ccccc3c21 | 76.7%[activator]
COc1ccc(C2=Nn3c(nnc3-c3ccccc3C(F)(F)F)SC2)cc1O[C@H]1CCOC1 | i
CCOc1ccc(NC(=O)Cn2nc(CC)n3c(cc4sccc43)c2=O)cc1 | -17.9%
OCCN1CCN(CCCN2c3ccccc3Sc3ccc(C(F)(F)F)cc32)CC1 | 25.0%&35.7%
COc1ccc(NC(=O)Nc2cccc(OCc3cc(=O)n4cccc(C)c4n3)c2)c(OC)c1 | -10.2%
Cc1ccsc1-c1[nH]nc2ncc(-c3ccccc3O)nc12 | i
O=C(O)Cc1sc(Nc2ccccc2)nc1-c1ccccc1 | ?
Cc1c(C(=O)N(C)C)sc2c1c(=O)n(-c1ccc(Cl)cc1)c(=O)n2CC(=O)C(C)(C)C | -15.0%
NC(c1ccccc1)c1nnc2n1CCN(C(=O)N1CCOCC1)C2 (stereo not drawn) | -44.7%
CC(C)n1cnc2c(NCc3ccccc3)nc(NCCCO)nc21 | 7.4%
COc1ccc(O)c(C2=Nc3ccccc3N=C(c3ccccc3)C2)c1 | -13.8%
CC1CCCN1c1ccc(C(=O)N2CCC(Oc3cccnc3)CC2)cn1 (stereo not drawn) | 4.1%
COc1ccc(CNc2nc(-c3ccc(OC)c(OC)c3)cc(C(F)(F)F)n2)cc1 | -0.1%
O=C(c1cnc(N2CCOCC2)c2ccccc12)N1CCN(c2ccccc2F)CC1 | -17.0%
OCCN1CCN(C(c2ccc(Cl)cc2Cl)c2sc3nc(-c4ccco4)nn3c2O)CC1 (stereo not drawn) | -0.2%
Nc1ncc(S(=O)(=O)NCc2ccccc2F)cn1 | -5.6%
COc1ccc(Cl)cc1NC(=O)c1ccc(CN2C(=O)CCn3nc(C)cc32)cc1 | -12.8%
CC1(C)CC(=O)C2=C(C1)NC(Nc1nc3ccccc3o1)=NC21CCCCC1 | -2.7%
CNCCCCOc1ccccc1Cc1ccccc1 | 3.3%
Cc1ccc(C)c(NC(=O)c2cnn(-c3cccc(F)c3)c2C2CCN(C(=O)OC(C)(C)C)CC2)c1 | 41.9%
Cn1cccc1-c1noc(C2CCN(C(=O)CCn3cnc4ccccc43)C2)n1 (stereo not drawn) | i
O=C(OCC1=CC(Cl)C(O)C(OC(=O)c2ccccc2)C1O)c1ccccc1 (stereo not drawn) | ?
Cc1[nH]c2ccccc2c1CCNC(=O)c1ccccc1F | -12.7%
Cc1ccc(NC(=O)c2cc(S(=O)(=O)N3CCC4(CC3)OCCO4)ccc2F)cc1Cl | -12.9%
Cc1ccc(C)c(N2CCN(c3nc4ccccc4n4nnnc34)CC2)c1 | -18.4%
O=C(O)Cc1cccc(-c2cc(CCCCCCc3ccc(O[C@H]4O[C@H](CO)[C@@H](O)[C@H](O)[C@@H]4O)c(-c4cccc(CC(=O)O)c4)c3)ccc2O[C@H]2O[C@H](CO)[C@@H](O)[C@H](O)[C@@H]2O)c1 | -4.9%[0.199 µM]
COc1ccc(OC)c(S(=O)(=O)N2CC(N(C3CCOCC3)S(C)(=O)=O)C2)c1 | -3.3%
CCC(CC)O[C@@H]1C=C(C(=O)O)C[C@H](N)[C@H]1NC(C)=O | 9.1%
OB1OCc2cc(F)ccc21 | -1.3%
Cc1cc(C)nc(NC(=S)N2CCN(c3ccc4cn(C)nc4c3)CC2)c1 | i
OCC1(CN2CCCC2)CCN(Cc2cnn(-c3ccccc3)c2)CC1 | -10.4%
Nc1nccc(-c2c(-c3ccc(F)cc3)ncn2C2CCCCC2)n1 | 2.1%
C1CC(c2noc(C3CC3)n2)CN1 (stereo not drawn) | 18.0%
Cc1nc(NCC2(c3ccccc3)CCOCC2)cc(C2CC(O)C2)n1 (stereo not drawn) | 2.0%
Cc1cc(C[C@@H]2COC[C@@H]2NC(=O)CCc2nc(-c3ccco3)no2)on1 | -27.5%
CCC(=O)NC(c1cc(Cl)c2cccnc2c1O)C1CC1 (stereo not drawn) | i
C[C@@H]1O[C@@H](O[C@H]2CC[C@@]3(C)C(CC[C@@H]4C3CC[C@]3(C)[C@@H](C5=CC(=O)OC5)CC[C@]43O)C2)[C@H](O)[C@H](O)[C@H]1O (stereo partly drawn) | 16.3%[10 µM]
CCCCc1nn2c(=O)cc(CN(CC)c3ccccc3)nc2s1 | -26.9%
CCOC(=O)N1CCN(C(=O)c2sc(C(C)C)nc2C)CC1 | i
CCn1c(CO)nnc1C1CC(NC(=O)c2ccc3nc(C)oc3c2)C1 (stereo not drawn) | -4.2%
O=C(NCc1ccc(Cl)cc1)c1cc(-c2ccc[nH]2)n[nH]1 | 8.91µM*
COc1ccc(Nc2cc(O)c3ncccc3c2)cc1 | i
COc1cccc(Nc2ccc(N3CCCCC3)cc2)c1OC | 1.6%
CCC1(O)CCC12CCN(C(=O)Cc1ccccc1)CC2 (stereo not drawn) | 2.7%

The list is partial; count on the stated rates, not on these rows.
